Menin-MLL FL inh: displaces fluorescein MLL peptide from human menin | 290,000 tested, under 10 active | Fluorescence polarization, fluorescein-MLL peptide displacement from menin | FP activity change, % at 61.4 µM; inconclusive = falling polarisation curve, or a change in total fluorescence; inactive = total fluorescence flat and polarisation flat or rising; no compound was filed as active; the % refers to the polarisation; negative = inhibition;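 note: % of control where 0% means no effect; inhibitors lower the polarisation; unlabelled MLL peptide was the positive control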
PINK1 expr mod: modulators of PINK1 expression; PINK1 immunofluorescence, high-content cytometry, 24 h; Potency, µM (doses to about 76.6 µM), without a hit: at the top dose activation (PINK1 increase), usual class: activators; actives 0.2% (n = 410,000); active = well fitted activation curve with a large enough effect; inconclusive = small, poorly fitted or top-dose-only effect; inactive = flat fitted curve, though single readings scatter; cell line not stated here;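 note: potency is the fitted concentration of half-maximal effect; % of control where 0% means no effect; nearly all actives have a fitted effect of over 65% in size; a mitochondrial uncoupler was the plate control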
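Stable cell line, 250 cells/well, 12 h attachment; compounds pinned at 5 concentrations, 24 h; CCCP control. Fixed with nuclear dye, primary antibodies 12 h at 10 degrees C, secondary plus cell stain; laser-scanning cytometer read.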
TRPML1 blocker: inhibitors of human TRPML1 channel; Q9GZU1; TRPML1-inducible cells, Ca2+ dye fluorescence, FDSS; active compounds read low; inhibition of EC80 agonist-evoked calcium signal; activity change, negative = inhibition, % (no concentration beside the values); actives 0.02% (n = 390,000); in the data active means activity change below about -50%; inconclusive means about -30% to -50%; inactive means above about -30%;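 note: stimulus is agonist 54-4 at its EC80 concentration; % is set by controls: 0 for no effect and ±100 for the full control effect; compound concentration not given in the record; the text of the record puts the active cut at -80%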
Target sequence (Q9GZU1 whole entry, looked up): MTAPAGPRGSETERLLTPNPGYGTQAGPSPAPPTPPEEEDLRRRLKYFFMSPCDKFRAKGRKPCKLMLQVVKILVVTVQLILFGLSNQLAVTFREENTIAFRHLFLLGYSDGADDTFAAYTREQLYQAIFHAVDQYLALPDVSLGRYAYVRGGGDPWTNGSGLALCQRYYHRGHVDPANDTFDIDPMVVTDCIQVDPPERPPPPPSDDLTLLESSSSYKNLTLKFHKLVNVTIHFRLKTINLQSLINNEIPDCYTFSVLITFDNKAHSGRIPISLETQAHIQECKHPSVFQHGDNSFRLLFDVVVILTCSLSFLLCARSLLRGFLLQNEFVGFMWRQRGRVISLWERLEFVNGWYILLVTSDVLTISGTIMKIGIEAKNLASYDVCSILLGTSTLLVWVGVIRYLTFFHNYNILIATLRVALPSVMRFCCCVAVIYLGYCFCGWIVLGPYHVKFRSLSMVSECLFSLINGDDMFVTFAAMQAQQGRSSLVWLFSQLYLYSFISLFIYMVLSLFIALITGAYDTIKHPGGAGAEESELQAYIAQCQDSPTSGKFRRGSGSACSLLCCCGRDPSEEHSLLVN
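Calcium fluorescence in TRPML1-DL cells induced overnight with Tet: a 110 s read after compound pin addition, then a 110 s antagonist read after challenge with 54-4 at 4 uM final (EC80).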
TRPV1 PAM: enhances activation of the human vanilloid receptor TRPV1. TRPV1-expressing cells, Fluo-8 calcium influx, capsaicin EC20 potentiation; host cell line not named in the record; control for the full effect not named in the record. actives 0.02% (n = 320,000). AID 540277. Q8NER1. potentiation, % at 8.33 µM; active means potentiation above 80%; inconclusive means 30% to 80%; inactive means below 30%; note: 0% is about no effect
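Cells expressing TRPV1 were dye-loaded with Fluo-8 and read kinetically: 10 s baseline, 3 min after compound (agonist portion), then 2 min after EC20 capsaicin (allosteric enhancer portion). Calcium-bound dye fluorescence at 480/520 nm.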
TRPML1 agonist: activates the human TRPML1 channel; AID 624414; Q9GZU1; activation, % (concentration not given with the values); actives 0.12% (n = 410,000); TRPML1-expressing cells, Ca2+ dye fluorescence, FDSS; host cell line not named in the record; reference of the full effect not given here; in the data active = activation above about 50%; inconclusive = about 30% to 50%; inactive = below about 30%; note: 0% is about no effect; the text of the record puts the active cut at 80%
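Tetracycline-induced TRPML1-DL cells are seeded and incubated overnight before loading with a no-wash Ca2+ dye and quencher. Agonist activity is taken from the 110 s fluorescence read following compound pin-transfer on an FDSS, before EC80 54-4 challenge.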
Sfp PPTase inh: blocks B. subtilis Sfp PPTase activity | Biochemical Sfp PPTase activity, qHTS | actives 3.5% (n = 310,000) | AID 1490 | Potency, µM, for the others: max response, negative = inhibition, most hits filed as inhibitors; active = well fitted inhibition curve with a large enough effect; inconclusive = small, poorly fitted or top-dose-only effect, or another doubt; inactive = no such curve, though single readings can be large or run the other way;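 note: the enzyme is Sfp with the accession as filed and its product quenches rhodamine fluorescence; potency is the fitted concentration of half-maximal effect; 0% = enzyme reaction without inhibitor and -100% = no enzyme wells; top concentration of the series not given in the record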
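Buffer: 50 mM Hepes-Na pH 7.6, 10 mM MgCl2, 0.01% Nonidet P-40, 0.01% BSA. Enzyme 15 nM, pre-exposed to compound 15 min; substrates then added and fluorescence change tracked over 30 min.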
ClpP mod: qHTS Assay for Activators of ClpP. purified B. subtilis ClpP, FRET peptide cleavage, 20 min. Potency, µM (top dose mostly 57.5 µM), inactives show at the top dose activity change, negative = active. actives 1.9% (n = 340,000). AID 651965, 2013; active = well fitted falling curve with a large enough effect; inconclusive = small, poorly fitted or top-dose-only effect; inactive = no such curve, though single readings can be large or run the other way; note: potency is the fitted concentration of half-maximal effect; the source files actives as falling curves though it sought activators and does not explain the sign; nearly all actives have a fitted effect of over 65% in size; many hits overshoot -100%
Target sequence (P80244 whole entry, looked up): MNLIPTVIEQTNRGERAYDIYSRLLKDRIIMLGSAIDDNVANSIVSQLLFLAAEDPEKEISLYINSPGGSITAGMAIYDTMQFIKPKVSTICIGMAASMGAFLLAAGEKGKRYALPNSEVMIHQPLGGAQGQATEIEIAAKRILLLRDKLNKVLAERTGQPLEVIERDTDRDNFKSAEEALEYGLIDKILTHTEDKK
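Purified B. subtilis ClpP, 10 microg/mL final in Tris/HCl pH8 with KCl, BSA, glycerol and Tween-20, cleaved an Abz/nitrotyrosine-quenched decapeptide. Fluorescence (ex 320, em 430) was read at 0 and 20 min at room temperature. Delta was normalized to 5.8 microM ADEP and DMSO/no-enzyme controls.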
Numbers without * were called inactive; ? = inconclusive; · = not tested or not shown; & = joins results of further samples; [ ] = another dose, or the depositor's remark.

SMILES | Menin-MLL FL inh | PINK1 expr mod | TRPML1 blocker | TRPV1 PAM | TRPML1 agonist | Sfp PPTase inh | ClpP mod
O=C(COC(=O)/C(=C/c1cccs1)c1cccs1)NCc1ccccc1Cl | 1.7 | -1.1% | 16 | -8 | 0.3 | 6% | ·
Cc1cc(C)n2nc(SC(C)C(=O)N3CCCC3)nc2n1 (stereo not drawn) | · | ? | -8 | ? | 0.1 | · | -14%
COc1cc(/C=C2\SC(=S)N(CCC(=O)Nc3cccc(O)c3)C2=O)cc(OC)c1OC | 2.4 | 5.3% | -15 | 5 | 1.4 | 10% | 0.1%
CN(CC(=O)Nc1ccc(F)c(F)c1F)C(=O)C1=NN(c2ccccc2)C(=O)CC1 | · | 1.5% | 4 | -2 | -0.1 | · | 0.6%
Cc1ccc(S(=O)(=O)Nc2ccc(N3CCOCC3)cc2)cc1C | 1.0 | -1.6% | 37 | ? | 0.6 | 0% | ·
O=C(NNC(=O)C12CC3CC(CC(C3)C1)C2)c1ccccc1O | · | 0.2% | 39 | -7 | 0.4 | · | ?
O=C(Nc1cccc(-c2nc3ccccc3o2)c1)c1cc([N+](=O)[O-])ccc1N1CCOCC1 | · | 4.2% | -14 | -19 | 0.9 | · | 0.1%
C[C@H]1COC(=O)[C@@H](Cc2ccc(F)cc2)C/C=C\C[C@@H](CC(=O)N[C@@H](CO)Cc2ccccc2)C(=O)N1 | · | -0.3% | -3 | · | 0.4 | · | -0.5%
Cc1ccc(OCc2nnc(SCC(=O)Nc3ccc4c(c3)OCO4)n2C)cc1 | -1.9 | -11%[38.3 µM] | -6 | 2 | -0.8 | 2% | 1.2%
CC1(C)CC(=O)c2c(oc3cc(O)c(O)cc23)C1 | 6.8&-0.8 | -3.0% | 22 | 2 | -0.8 | 56µM* | -1.0%
O=C(Nc1cccc(S(=O)(=O)Nc2ccccc2F)c1)c1ccc2ccccc2n1 | 7.1 | 2.4% | -9 | 25 | 2.6 | 8.9µM* | ·
O=C(COC(=O)c1ccccc1)NC1CCCCCC1 | · | 0.0% | 10 | · | -1.1 | · | ·
Cc1ccc(-c2nc3cccc(C)n3c2Nc2ccc(F)cc2)o1 | · | -0.4% | · | · | -0.6 | · | 3.8%
O=c1c(Sc2ccccc2)c(C(F)(F)F)[nH]n1-c1ccccc1 | 1.0 | · | 2 | ? | -0.1 | 16% | 1.6%
CCCCCCCCCCC(=O)Nc1cccnc1 | -1.8 | · | · | -15 | · | 9% | ·
O=C(NCc1ccccc1)C1CCC(CNc2c(N3CCCCC3)c(=O)c2=O)CC1 (stereo not drawn) | -2.1 | 0.1% | 18 | 7 | 0.1 | 28% | -1.2%
COCCCOc1cc(NCc2ccccc2)c2ncn(C(C)C)c2c1 | · | -0.6% | -23 | · | 1.5 | · | -3.5%
N#CCCN(C(=O)COC(=O)c1ccc2c(=O)n3c(nc2c1)CCC3)c1ccc(F)cc1 | -2.6 | 0.1% | -10 | -13 | 0.0 | 5% | ?
COc1cccc(CNC(=O)c2ccc(COc3ccccc3)cc2)c1 | · | 0.0% | 20 | -6 | 6.2 | 9% | -8.2%
N#CC1=C(SCc2ccccc2)NC(=O)CC1c1ccco1 (stereo not drawn) | 5.9 | 4.2% | 4 | 12 | 0.3 | 45µM* | -6.9%
O=C(Cc1ccccc1Nc1c(Cl)cccc1Cl)OCO/N=[N+](\[O-])N1CCCC1 | -1.2 | · | 43 | · | 3.8 | 22µM* | ·
Cc1cccc(NC(=O)[C@H](Cc2ccccc2)NC(=O)OCc2ccccc2)c1 | 14 | 3.8% | 16 | -18 | 3.1 | -6% | 0.6%
CC(=O)c1ccc(N(CC(=O)NC2CCCC2)C(=O)CNC(=O)c2cccs2)cc1 | -0.4 | -0.9% | -19 | 8 | 0.2 | 4% | ·
CCCCSc1oc(-c2ccco2)nc1S(=O)(=O)c1ccccc1 | 7.7 | 3.4% | 9 | 9 | 1.4 | -4% | ·
O=C(CN1C(=O)NC(c2ccc(F)cc2)C1=O)NC1CCCCC1 (stereo not drawn) | · | 1.2% | 45 | · | 2.8 | · | -0.4%
Cc1ccc(CNC(=O)C2CC(c3ccccc3[N+](=O)[O-])=NO2)o1 (stereo not drawn) | 0.4 | 1.0% | -9 | 1 | 0.1 | -21% | -0.4%
N#CC(Cc1cccs1)c1nc2ccccc2[nH]1 (stereo not drawn) | · | 1.2% | 6 | · | 0.9 | · | 0.1%
COc1cccc(N2CCN(C(=O)c3cc(-c4ccccc4)nc4c3cnn4C(C)C)CC2)c1 | · | 1.2% | 8 | · | -0.6 | · | -7.0%
COc1ccc([C@H]2CC(=O)C=C(c3cc(Br)ccc3OC)C2)cc1 | · | 2.2% | 17 | · | 2.3 | · | -0.2%
Cc1cccc(C)c1NC(=O)Cn1nnc(C(=O)Nc2c(C)cccc2C)c1N | · | 0.3% | 13 | · | -0.9 | · | -2.2%
COc1ccccc1N(CC(=O)Nc1ccc(Br)cc1F)S(=O)(=O)c1cccs1 | · | 6.0% | -15 | 0 | 0.7 | · | ·
CCCCN(C(=O)C1CCCO1)c1c(N)n(CC(C)C)c(=O)[nH]c1=O (stereo not drawn) | · | -0.3% | 28 | 20 | -1.0 | · | -4.5%
Cc1ccc(CNC(=O)CCC2CCCN(C(=O)c3ccc4c(c3)OCO4)C2)o1 (stereo not drawn) | -8.5 | 3.2% | 11 | 2 | 0.4 | 28µM* | ·
CCN(CC)C(=O)N1CCN(C(=O)N2CCOCC2)CC1 | -1.3 | -0.1% | -9 | -1 | 0.1 | 14% | 0.7%
Cc1ccc(S(=O)(=O)NC(CC(C)C)C(=O)N2CCCCCCC2)cc1 (stereo not drawn) | · | -2.5% | 3 | 2 | 27 | · | ·
COc1ccccc1N1C(=O)N(C(C)=O)C2C1Nc1ccccc1N2C (stereo not drawn) | ? | -1.1%[38.3 µM] | -13 | ? | -0.4 | -21% | -5.3%

Gathered by group, the entries above with a cyano group (3)
SMILES | Menin-MLL FL inh | PINK1 expr mod | TRPML1 blocker | TRPV1 PAM | TRPML1 agonist | Sfp PPTase inh | ClpP mod
N#CCCN(C(=O)COC(=O)c1ccc2c(=O)n3c(nc2c1)CCC3)c1ccc(F)cc1 | -2.6 | 0.1% | -10 | -13 | 0.0 | 5% | ?
N#CC1=C(SCc2ccccc2)NC(=O)CC1c1ccco1 (stereo not drawn) | 5.9 | 4.2% | 4 | 12 | 0.3 | 45µM* | -6.9%
N#CC(Cc1cccs1)c1nc2ccccc2[nH]1 (stereo not drawn) | · | 1.2% | 6 | · | 0.9 | · | 0.1%

(continued)
SMILES | Menin-MLL FL inh | PINK1 expr mod | TRPML1 blocker | TRPV1 PAM | TRPML1 agonist | Sfp PPTase inh | ClpP mod
Cc1cccc(N2CCN(C(=O)CN3C(=O)COc4ccc(S(=O)(=O)N5CCCCCC5)cc43)CC2)c1C | · | 2.0% | 48 | · | 0.3 | · | -2.7%
CSc1ccccc1OCc1cc(C(=O)N(C)C(C)c2ccccn2)no1 (stereo not drawn) | · | -0.3% | -13 | -3 | 2.2 | -1% | 1.0%
COc1ccc(OC)c(CCNC(=O)Cn2ncc3c([nH]c4ccccc43)c2=O)c1 | · | 2.2% | 13 | · | 5.7 | · | -0.8%
Cc1ccc(CNC(=S)NC2CCCCC2)cc1 | 3.7 | 1.9% | -4 | -7 | 0.6 | 31%[activator] | 0.9%
O=S(=O)(O)c1nc2ccccc2n1Cc1ccc(Cl)cc1 | -0.9 | -0.3% | -10 | 10 | -0.5 | 16% | -1.1%
N#Cc1nc(-c2ccc(Cl)cc2)oc1NCC1CCCO1 (stereo not drawn) | 0.5 | 3.5% | 46 | -18 | 1.1 | 15% | 3.7%
CN(C)S(=O)(=O)c1cc(NC(=O)CN2CCOCC2)ccc1Cl | -0.5 | -0.8% | 17 | 3 | 1.3 | 24% | ·
CCOC(=O)N1CCC(NC(=O)CN2C(=O)C(CC)Oc3ccc(C)cc32)CC1 (stereo not drawn) | 0.8 | 0.7%[38.3 µM] | 2 | ? | 0.1 | 7% | 1.2%
CCN1C(=O)c2ccccc2S(=O)(=O)c2ccc(C(=O)NCc3ccccc3)cc21 | · | -0.5% | 25 | · | 0.2 | · | -5.8%
COc1ccccc1C(=O)N(C1=NC(C)CS1)c1ccc(Cl)cc1 (stereo not drawn) | 1.7 | 6.9% | 1 | -14 | 2.1 | -2% | 0.1%
Cc1cc(C)n2nc(SCC(=O)c3ccccc3)nc2n1 | -0.6 | · | 8 | 4 | -0.1 | -18% | -2.2%
O=C(NCCO)c1cccc(Nc2nc(-c3ccccc3)c3cc(Cl)ccc3n2)c1 | 3.7 | 3.5%[38.3 µM] | 8 | -4 | 0.8 | -27% | -0.3%
O=c1[nH]c2cc3c(cc2cc1C(c1nnnn1CC1CCCO1)N1CCCCCC1)OCCO3 (stereo not drawn) | 6.0 | -1.4%[38.3 µM] | 21 | -29 | 0.5 | 1% | 32µM*
CCc1ccc(C(=O)c2cnc3ccc(F)cc3c2S(=O)(=O)c2ccccc2)cc1 | · | -0.4% | -9 | · | 1.6 | · | 0.6%
O=C(Nc1ccc(N2CCCC2)cc1)c1cc2ccccc2o1 | -1.3 | -0.9% | · | -19 | · | ? | 1.0%
CCc1ccc(NC(=O)N(Cc2c[nH]c3ccccc23)C2CCCCC2)cc1 | · | 5.4% | -4 | · | 0.0 | · | -2.7%
CCOc1ccc(N(CC(=O)NCCOc2ccc(C)cc2)S(=O)(=O)c2ccccc2)cc1 | 2.4 | -0.5% | -15 | -4 | 0.5 | -13% | -7.7%
O=C(c1ccc(S(=O)(=O)N2CCOCC2)cc1)N1CCc2ccccc21 | -17 | 2.9% | 2 | -21 | 1.3 | 5% | ·
Cc1ccc(S(=O)(=O)Cc2ccc(C(=O)NC3CCCCCC3)o2)cc1 | · | 0.3% | -7 | ? | 1.3 | -2% | 2.0%
COc1cc(/C=N/NC(=O)NC2CCCCC2)cc(OC)c1O | 3.1 | 0.4% | -12 | 1 | 0.7 | -13% | -16%
Cc1cc(Cl)cc(C)c1OCC(=O)NC1CCCCCC1 | · | 21% | 27 | · | -1.6 | · | 0.2%
O=c1cccccc1NN=C1CCCCCC1 | 4.9 | -2.1% | -5 | -13 | -0.7 | 0% | -12%

From PubChem
